Screening results: PubChem, National Center for Advancing Translational Sciences (NCATS)
gsp ag: agonists of gsp mutant (McCune-Albright syndrome); gsp mutant cells, cAMP HTRF, 30 min; control for the full effect not named in the record; Potency, µM (doses to about 76.9 µM), inactives show at the top dose activation (cAMP increase), usual class: activators; 0.13% of 340,000 active; AID 624287; active = well fitted activation curve with a large enough effect; inconclusive = small, poorly fitted or top-dose-only effect, or another doubt; inactive = no such curve, though single readings can be large or run the other way; cell line not stated here;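 also: phosphodiesterase inhibitor Ro 20-1724 added with compounds to block cAMP breakdown; potency is read from the fitted curve at half-maximal effect; nearly all actives have a fitted effect of over 60% in size; about a fifth of the inactives were tested at one dose only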
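Cells in DMEM/10% FBS with G418 were pretreated with compounds in DMSO plus […] (300 uM stock) for 30 min at 37C. cAMP was measured by HTRF (cAMP-d2 plus anti-cAMP antibody-K) after 30 min at room temperature.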
TRPML1 blocker: inhibitors of human TRPML1 channel | Q9GZU1 | TRPML1-inducible cells, Ca2+ dye fluorescence, FDSS; stronger effect = lower value; inhibition of EC80 agonist-evoked calcium signal | activity change, negative = inhibition, % (concentration not given with the values) | 0.02% of 390,000 active | AID 624415; in the data active means activity change below about -50%; inconclusive means about -30% to -50%; inactive means above about -30%;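 also: stimulus is agonist 54-4 at its EC80 concentration; % is scaled to controls: 0 for no effect and ±100 for the full control effect; compound concentration not given in the record; the text of the record puts the active cut at -80%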
Target sequence (Q9GZU1 whole entry, looked up): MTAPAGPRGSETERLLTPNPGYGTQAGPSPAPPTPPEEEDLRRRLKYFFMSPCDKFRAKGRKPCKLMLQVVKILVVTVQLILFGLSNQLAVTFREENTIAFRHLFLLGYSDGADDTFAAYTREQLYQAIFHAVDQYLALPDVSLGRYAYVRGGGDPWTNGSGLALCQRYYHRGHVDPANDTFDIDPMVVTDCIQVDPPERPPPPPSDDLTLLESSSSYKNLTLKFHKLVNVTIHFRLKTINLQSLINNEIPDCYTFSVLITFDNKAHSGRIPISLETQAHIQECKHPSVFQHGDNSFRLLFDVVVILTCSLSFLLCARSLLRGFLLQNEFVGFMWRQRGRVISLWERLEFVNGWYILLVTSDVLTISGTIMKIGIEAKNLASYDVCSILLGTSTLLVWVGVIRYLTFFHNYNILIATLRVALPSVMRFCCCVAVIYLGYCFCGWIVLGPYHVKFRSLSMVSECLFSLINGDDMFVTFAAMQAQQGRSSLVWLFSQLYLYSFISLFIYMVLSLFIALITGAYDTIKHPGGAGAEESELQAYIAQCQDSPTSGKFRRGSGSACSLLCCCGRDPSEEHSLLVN
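TRPML1-DL cells, Tet-induced overnight (~16 h, 37 °C) at 1,500 cells/well, were loaded with Ca8 no-wash dye plus quencher for 45-90 min at room temperature. Compounds were pinned during FDSS kinetic reading; agonist 54-4 at EC80 (4 uM final) then added.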
gsp antag: gsp mutant antagonism. gsp-mutant cells, cAMP HTRF, 30 min; control for the full effect not named in the record. Potency, µM (highest dose often 76.9 µM), without a hit: at the highest dose activity change, negative = inhibition, hits mostly inhibitors. 0.4% of 340,000 active. AID 624288; active = falling curve of any shape with a large fitted effect; inconclusive = falling curve, mostly with a smaller effect; inactive = flat or rising curve; cell line not stated here;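 also: intracellular cAMP measured with PDE inhibitor Ro 20-1724 present during compound exposure; potency is read from the fitted curve at half-maximal effect; % is scaled to controls: 0 for no effect and ±100 for the full control effect; nearly all actives have a fitted effect of over 65% in size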
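Measurement of cellular cAMP by homogeneous time-resolved fluorescence following a 30 min compound exposure at 37C. The PDE inhibitor […] was present throughout; the assay buffer was DPBS with 0.05% BSA and 0.005% Tween 20.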
Sfp PPTase inh: blocks B. subtilis Sfp PPTase activity; Q9F4F7; 3.5% of 310,000 active; Biochemical Sfp PPTase activity, qHTS; Potency, µM, inactives show max response, negative = inhibition, usual class: inhibitors; active = well fitted inhibition curve with a large enough effect; inconclusive = small, poorly fitted or top-dose-only effect, or another doubt; inactive = no such curve, though single readings can be large or run the other way;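 also: the enzyme is Sfp with the accession as filed and its product quenches rhodamine fluorescence; potency is read from the fitted curve at half-maximal effect; 0% = enzyme reaction without inhibitor and -100% = no enzyme wells; top concentration of the series not given in the record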
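Reaction rates are the 30-min fluorescence difference (ex 525, em 598 nm) in wells containing 15 nM Sfp, 5 uM rhodamine-CoA and 12.5 uM BHQ-2-YbbR at pH 7.6 with 10 mM MgCl2.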
Menin-MLL FL inh: displaces fluorescein MLL peptide from human menin | Fluorescence polarization, fluorescein-MLL peptide displacement from menin | 290,000 tested, under 10 active | FP activity change, % at 61.4 µM; inconclusive = falling polarisation curve, or a change in total fluorescence; inactive = total fluorescence flat and polarisation flat or rising; no compound was filed as active; the % refers to the polarisation; negative = inhibition;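 also: % of control where 0% means no effect; inhibitors lower the polarisation; unlabelled MLL peptide was the positive control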
TRPV1 potentiator: enhances activation of the human vanilloid receptor TRPV1; 0.02% of 320,000 active; Q8NER1; potentiation, % at 8.33 µM; AID 540277; TRPV1-expressing cells, Fluo-8 calcium influx, capsaicin EC20 potentiation; host cell line not named in the record; control for the full effect not named in the record; active means potentiation above 80%; inconclusive means 30% to 80%; inactive means below 30%; also: 0% is about no effect
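Cells expressing TRPV1 were dye-loaded with Fluo-8 and read kinetically: 10 s baseline, 3 min after compound (agonist portion), then 2 min after EC20 capsaicin (allosteric enhancer portion). Calcium-bound dye fluorescence at 480/520 nm.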
ClpP mod: qHTS Assay for Activators of ClpP. ATP-dependent Clp protease proteolytic subunit (Bacillus subtilis (strain 168)), P80244. AID 651965, 2013. purified B. subtilis ClpP, FRET peptide cleavage, 20 min. Potency, µM (titrated, usually from 57.5 µM), for inactives: at the highest dose activity change, negative = active. 1.9% of 340,000 active; active = well fitted falling curve with a large enough effect; inconclusive = small, poorly fitted or top-dose-only effect; inactive = no such curve, though single readings can be large or run the other way; also: potency is read from the fitted curve at half-maximal effect; the source files actives as falling curves though it sought activators and does not explain the sign; nearly all actives have a fitted effect of over 65% in size; many hits overshoot -100%
Target sequence (P80244 whole entry, looked up): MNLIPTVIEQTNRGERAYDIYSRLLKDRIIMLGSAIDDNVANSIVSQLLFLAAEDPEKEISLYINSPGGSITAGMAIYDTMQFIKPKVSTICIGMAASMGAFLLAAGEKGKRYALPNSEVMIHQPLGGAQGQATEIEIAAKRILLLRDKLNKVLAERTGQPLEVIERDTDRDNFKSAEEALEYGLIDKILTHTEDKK
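Buffer: 100 mM Tris/HCl pH8, 100 mM KCl, 0.05% low protease BSA, 2.5% glycerol, 0.01% Tween-20. ClpP 10 microg/mL final; 20 min RT; delta FRET normalized to ADEP and DMSO controls.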
The depositor's hits bear a star; ? = inconclusive; / = no result given; & = joins results of further samples; [ ] = dose if it differs, or a comment.

SMILES	gsp ag	TRPML1 blocker	gsp antag	Sfp PPTase inh	Menin-MLL FL inh	TRPV1 potentiator	ClpP mod
Cc1cc(C)n(-c2ccc(C(=O)Nc3ccc(S(=O)(=O)NCc4ccco4)cc3)cc2)n1	0%	3	0%	11%	0.8	5	-1.4%
CCc1ccc(C(=O)OCC(=O)N2CCCCCC2)cc1	-21%	-6	3%	/	/	8	-0.1%
COc1cccc(CNC(=O)[C@H](CC(C)C)NC(=O)N2CCn3c2nc2ccccc23)c1	1%	3	-9%	4%	/	-5	-0.4%
COc1ccc(CCN(C)C(=O)c2cc(-c3ccccc3)nc3ccc(C)cc23)cc1OC	?	-3	-3%	8%	/	0	-8.9%
Cc1ccccc1OCC(=O)N/N=C1\SCC(=O)N1Cc1ccccc1	-4%	14	-12%	-18%	3.9	11	0.4%
O=C(Nc1ccc2c(c1)OCCO2)C1CCC1	-26%	42	0%	0%	0.4	0	-0.4%
COc1ccccc1CNC(=O)C(=O)Nc1nccs1	-11%[15.4 µM]	8	-5%	13%	-1.5	-6	/
Cc1cn([C@H]2C[C@H](O)[C@@H](CNS(=O)(=O)c3ccc(NS(=O)(=O)N(C)C)cc3)O2)c(=O)[nH]c1=O	?	-1	/	/	/	/	-1.3%
C#CCOCCOCCOCCNc1nc(N2CCN(C(=O)[C@H](CCC(=O)O)n3cc(C(N)CC(C)C)nn3)CC2)nc(N2CCN(C(=O)[C@H](CCC(=O)O)n3cc(C(N)[C@H](C)CC)nn3)CC2)n1 (stereo partly drawn)	16%	30	8%	-7%	-1.1	-3	-0.2%
CCc1ccccc1OCC(=O)Nc1cc(S(=O)(=O)N2CCOCC2)ccc1N1CCCCC1	-4%[15.4 µM]	18	?	/	/	10	/
COc1ccc(OC)c2[nH]c(=O)c(CCNC(=O)C(=O)c3c(C)[nH]c4ccccc34)cc12	-19%	-4	?	13%	-3.3	-2	/
O=C(COC(=O)c1c(Cl)ccc(Cl)c1Cl)NCC1CCCO1 (stereo not drawn)	-11%[15.4 µM]	-9	9%	/	/	/	-0.7%
O=C(CSc1nnc(-c2ccco2)o1)NC1CC2CCC1C2 (stereo not drawn)	0%	-9	-5%[15.4 µM]	2%	-0.7	-7	-3.0%
O=C(NNC(=S)Nc1ccccc1)c1ccco1	3%	-6	5%	7%	3.2	-2	0.7%
Cc1csc(NC(=O)c2cc(-c3ccccc3)nc3ccccc23)n1	-11%	-8	-2%	18%	10	0	-3.0%
COc1ccc(-c2cnc(SCC(=O)Nc3nc(C(C)(C)C)cs3)n2Cc2ccco2)cc1	-5%	-7	-2%	-14%	6.3	-10	-4.7%
CSc1ccccc1NC(=O)c1cnc2n(c1=O)CCS2	29%	5	-2%	-8%	1.5	/	-6.7%
CCCCN1C(=O)C2NN=C(C(=O)OCC)C2C1=O (stereo not drawn)	1%	4	4%	-8%	5.3	19	-3.2%
CC(C)[C@H](NC(N)=O)C(=O)NCCc1ccc(Cl)cc1	-58%[inhibitor]	-13	2%	12%	-3.0	-20	-4.7%
CCCCn1c(N)c(N(CC(C)C)C(=O)c2cccc(S(=O)(=O)N3CCN(C(C)=O)CC3)c2)c(=O)[nH]c1=O	-39%	4	5%	/	/	7	-4.0%
CCN(CC)CC(=O)Nc1nc(-c2ccc(Cl)cc2)cs1	-20%	4	0%	3%	-0.8	-15	-0.3%
CCC(C)NC(=S)N1CCN(Cc2ccc3c(c2)OCO3)CC1 (stereo not drawn)	7%[15.4 µM]	23	8%	-8%	0.1	1	/
COc1ccc(-c2nc3c(c(=O)[nH]c(=O)n3Cc3ccccc3)n2Cc2ccccc2)cc1	10%	-6	-6%	-18%	2.4	2	28µM*
CCN1CCN(c2cc(-c3ccccc3)nc3cc(-c4cccc(F)c4)nn23)CC1	21%	65	5%	-4%	-1.4	2	25µM*
CCc1cccc2c(C#N)cn(CCOc3ccccc3OC)c12	-4%	2	-17%	-30%	1.8	-6	0.2%
CC(C)COC(=O)OCN1C(=O)CN(CCN2CC(=O)N(COC(=O)OCC(C)C)C(=O)C2)CC1=O	/	-5	0%	18%	0.0	-3	2.4%
N#Cc1nc(-c2ccco2)oc1N1CCN(c2cccc(Cl)c2)CC1	8%	4	0%	-1%	2.6	-1	32µM*
Cc1ccccc1NC(=S)/C(=C(\[O-])c1ccc(C)c([N+](=O)[O-])c1)[n+]1ccccc1	?	-4	-17%	-19%	4.8	20	2.1%
Clc1ccc(N2CCN(c3ncnc4c3oc3ccccc34)CC2)cc1	-23%	13	18%	11%	-0.3	12	-19%
CCCCn1c(N)c(N(CC(C)C)C(=O)c2cc(-c3ccc(OC)c(OC)c3)nc3ccccc23)c(=O)[nH]c1=O	-13%[15.4 µM]	-1	0%	/	/	0	-10%
CCOC(=O)CCCCCC(=O)Nc1ccc2c(c1)C(=O)N([C@@H](C)CO)C[C@H](C)[C@H](CN(C)C(=O)Nc1ccc(F)cc1)OCCCC[C@H](C)O2	-1%	-3	/	/	/	/	-5.7%
COc1ccccc1NC1=NC2(CCCC2)N=C(N)N1	4%	12	18%	2%	-2.3	?	-1.7%
CC(C(=O)OCC(=O)c1ccc(Br)cc1)N1C(=O)C2C3CCC(C3)C2C1=O (stereo not drawn)	1%	0	-1%	-7%	/	17	/
COc1ccc(S(=O)(=O)N2CCCCCC2)cc1C(=O)N(C)CC(=O)Nc1ccccc1Cl	-72%[inhibitor]	10	-5%	/	/	8	1.2%
CC/C(=C\C(=O)c1cccnc1)Nc1ccc(C)c(C)c1	?	-3	-8%	0%	5.0	-11	-0.2%
COCCCN1C(=O)C(CC(=O)NC2CCCCC2)CC(C(=O)N2CCOCC2)=C1C (stereo not drawn)	?	-14	/	/	/	/	2.0%
CC(C)(C)C1=Nn2c(nnc2-c2ccco2)SC1	2%	-11	-7%	-23%	0.1	-13	-3.5%
O=C1NC(=O)c2cc(NC(=O)C3COc4ccccc4O3)ccc21 (stereo not drawn)	?	1	1%	-2%	0.1	-22	11%
CCOC(=O)N1CCC(NC(=O)C(NS(=O)(=O)c2ccc3c(c2)CCN3C(=O)CC)C(C)C)CC1 (stereo not drawn)	-3%[15.4 µM]	10	/	16%	-0.1	4	/
O=C(O)CC1S/C(=N/N=C/C2CC=CCC2)NC1=O (stereo not drawn)	16%	-21	11%	17%	-0.1	-12	/
CC(Sc1ccccc1)C(=O)Nc1ccccc1C(=O)N1CCOCC1 (stereo not drawn)	-15%	-30	8%	-1%	-1.5	9	-17%
O=C(O)c1ccc(CNCc2cc(Cl)ccc2O)cc1	/	17	2%	/	/	-17	0.6%
COc1ccc(NC(=O)/C(C#N)=C/C=C/c2ccco2)cc1	8%	63	-11%	-15%	4.2	0	-9.3%
COc1ccc(N=Nc2[nH]c3ccc(C)cc3c2O)cc1	10%	17	13%	-16%	7.2	27	0.7%
C=CCSc1nnc(NC(=O)COc2ccc3ccccc3c2)s1	-23%	-12	8%	2%	-0.4	11	-2.8%
Cc1cnc(C(=O)Nc2ccccc2-c2ccc(C)o2)cn1	7%	6	-6%	50µM*	?	16	0.0%
CC(=O)Oc1ccc(C(=O)Nc2ccc(S(=O)(=O)N3CCOCC3)cc2)cc1	-7%[15.4 µM]	12	-14%	12%	-12	-9	-1.5%
Cc1ccc(/C=N/n2c(COc3ccccc3)n[nH]c2=S)cc1	23%	/	-20%	?	0.2	-6	1.1%
CCOc1ccc(NS(=O)(=O)c2cc(C(=O)N(CC)CC(=O)NCc3cccs3)ccc2C)cc1	-45%[inhibitor]	-5	-21%	/	/	-5	-1.6%
COc1cccc(-c2cccc(NC(=O)C3CCN(Cc4ccon4)CC3)c2)c1	1%	-3	-7%	21%	/	-1	-2.8%
Cc1ccccc1C(c1ccccc1Cl)N(C)C (stereo not drawn)	-38%[inhibitor]	-13	-1%	/	/	/	-1.7%
C#CCOCCOCCOCCNc1nc(N2CCN(C(=O)[C@H]([C@@H](C)O)n3cc(CCCCN)nn3)CC2)nc(N2CCN(C(=O)[C@H](CCCCN)n3cc(CC(C)O)nn3)CC2)n1 (stereo partly drawn)	/	4	15%	/	/	?	0.1%
Cn1c(SCC(=O)N2CCOCC2)nnc1-c1cccc(NC(=O)c2ccccc2F)c1	5%	-5&-8	9%	11%	-2.7	9	-2.6%
CC(=O)NS(=O)(=O)c1ccc(NC(=S)NC(=O)c2ccco2)cc1	25%	-10	-7%	?	2.6	-1	3.0%
CCOC(=O)/C(C#N)=C/c1cc(C)n(-c2ccc(Br)cc2)c1C	/	/	/	17%	-0.5	6	/
CCCc1cc(C(=O)NCc2cccs2)no1	-25%	-2	10%	-4%	-0.9	/	0.6%
COc1ccc(Cl)cc1NC(=O)CN1C(=O)C(=O)N(C2CCCC2)C1=O	?	11	/	/	/	/	-1.0%
CN(CC(=O)Nc1c(Cl)cccc1Cl)C(=O)C1=COCCO1	-72%[inhibitor]	-8	9%	/	/	-2	0.7%
O=S(=O)(NCC1(N2CCOCC2)CCCCC1)c1ccc(Cl)cc1C(F)(F)F	-7%[15.4 µM]	-12	9%	5%	/	-14	0.2%
CCC(=O)c1ccc(Oc2ccc(C(=O)c3ccc(C)cc3)cc2[N+](=O)[O-])cc1	?	-9	11%	3%	-3.1	2	-7.1%
C[n+]1c(-c2ccccc2)cc2c(=Cc3ccc([N+](=O)[O-])cc3)c3ccccc3n21	25%	26	-10%	/	/	/	-4.1%
Cc1cccc(/C=C/c2onc(C)c2[N+](=O)[O-])n1	9%[15.4 µM]	9	-11%	/	/	/	/
CCOC(=O)C1=C(CC)OC(N)=C(C#N)C1c1ccc(OC)c(OC)c1OC (stereo not drawn)	-29%[15.4 µM]	-7	-45%	0%	3.9	-18	-3.8%
